HSD17B inhib – qHTS Assay for Inhibitors of HSD17B4, hydroxysteroid (17-beta) dehydrogenase 4. AID 893, 2007. 75,000 tested, 7.6% active. recombinant HSD17B10, NADH fluorescence kinetic; many of its hits are not listed in these tables. 3-hydroxyacyl-CoA dehydrogenase type-2 (Homo sapiens), Q99714. Potency, µM (top dose mostly 57.1 µM), for inactives: at the top dose activity change, negative = inhibition, hits mostly inhibitors; active = well fitted inhibition curve with a large enough effect; inconclusive = small, poorly fitted or top-dose-only effect; inactive = no such curve, though single readings can be large or run the other way;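 note: the protocol describes HADH2 (HSD17B10) and not the HSD17B4 of the title; nearly all actives have a fitted effect of over 70% in size; most hits overshoot -100% by far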
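His-tagged E. coli-expressed HADH2 at 20 nM in 100 mM Tris-HCl pH 9.0 with 0.01 % Tween-20, preincubated 15 min with compound at room temperature. Reaction with 1 mM NAD+ and 90 uM beta-hydroxybutyryl coenzyme A; NADH fluorescence (360/450 nm) read kinetically over 4 min, last minus first point.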
The depositor's hits bear a star; ? = inconclusive; & = joins results of further samples; [ ] = remark or other dose. % is set by controls: 0 for no effect and ±100 for the full control effect; potency is the fitted concentration of half-maximal effect.

SMILES	HSD17B inhib
CC(=O)NC(CCS(C)(=O)=O)C(=O)Nc1cccc(C(C)=O)c1 (centres undefined)	5%
O=P(OC1CCS(=O)(=O)C1)(c1ccccc1)c1ccccc1 (centres undefined)	21%
O=C(Nc1ncc(Br)s1)C(Cc1ccccc1)n1cccc1 (centres undefined)	?
CCOC(=O)N1CCN(C(=O)c2ccc(C#CC3(O)CCCCC3)cc2)CC1	4%
CCOC(=O)c1[nH]c(C(=O)O)c(CCC(=O)OC)c1C	2%
Cc1c(C(=O)Nc2ccccc2)oc2c1C(=O)CC(C)(C)C2	-19%
C/C(=C(\C#N)C(=O)NCCN1CCOCC1)N(C)C	-9%
O=C(Nc1cccc(F)c1)N1CCC2(CC1)CCN(C(=O)c1cc(C(F)(F)F)cc(C(F)(F)F)c1)CC2	-3%
Clc1ccc(OCc2nnc(-c3ccccc3Br)o2)cc1	-15%
Cc1ncc2c(c1O)COP(=O)(O)OC2	-3%
O=C(O)CCc1ccc(-c2ccc(Br)cc2)n1Cc1ccco1	32µM*
Cc1ccc2cccc(Oc3nnnn3-c3ccccc3)c2n1	1%
CCCc1nc2ccccc2c(=O)n1NC(=O)c1c(O)c2ccccc2[nH]c1=O	-16%
Cn1c(=O)c(CCc2ccccc2)nc2cnc(N3CCNCC3)nc21	32µM*
CC(=O)OCC(=O)[C@]12OC(C)(C)O[C@@H]1C[C@H]1[C@H]3CC=C4C[C@@H](O)CC[C@]4(C)[C@H]3CC[C@]12C	9%[11.4 µM]
Cc1ccccc1OCCCCCn1ccnc1	-2%
COc1cc2[nH]c(=S)n(Cc3ccc(C)o3)c(=O)c2cc1OC	-14%
NCCSCc1ccccc1Cl	-10%[11.4 µM]
COC(=O)c1[nH]c2ccc(C)cc2c1NC(=O)CN1CCN(c2ccccc2)CC1	32µM*
COc1ccc(Cl)cc1N(CC(=O)Nc1ccccc1C(=O)NCc1ccco1)S(C)(=O)=O	?
COc1cccc(-c2nc(CS(=O)CC(=O)NCc3ccccc3Cl)c(C)o2)c1 (centres undefined)	?
O=C(COCCOCC(=O)N(c1ccccn1)C1CCCCC1)N(c1ccccn1)C1CCCCC1	6%
N=C(N)SCCc1ccccn1	6%&2%[11.4 µM]
O=C1[C@@H]2[C@H]3[C@H](O)[C@H](O)C/C(=N/OCc4ccccc4)[C@@H]3CC[C@H]2C(=O)N1c1ccc(F)cc1F	2%[11.4 µM]
CC1CC(C)CN(CCCNC(=O)C2CCC(=O)N2C2CCCC2)C1 (centres undefined)	10%
COc1cccc(C2NC(=O)NC(C)=C2C(=O)OCCSC)c1OC (centres undefined)	-3%
CSCCC(NC(=O)c1ccco1)C(=O)OC(C)C(=O)NC(=O)NC1CCCCC1 (centres undefined)	5%
Cc1nc(-c2ccccc2)nc2[nH]c(=O)n(-c3ccccc3)c(=O)c12	-16%
O=C(NCn1ccc(=O)[nH]c1=S)c1ccccc1	7%
O=C1C(C=Nc2ccccc2O)=C(O)c2ccccc21	-11%
Nc1ccn([C@H]2C[C@H](O)[C@@H](CO)O2)c(=O)n1	-4%
O=C(NC1CCCC1)C1CC(c2ccc(F)cc2)=NO1 (centres undefined)	7%
COCCNC(=O)CN1CCC(n2c(C)nc3cc(C(F)(F)F)ccc32)CC1	2%
C=CCc1c(C)nc(SCC(=C)C)[nH]c1=O	-4%
Cc1nn(C)c(C)c1S(=O)(=O)N1CCC(C(=O)NC2CCCCC2)CC1	12%
Cc1cc(C)n(-c2ccc(C(=O)Nc3ccccn3)cc2)n1	6%
OCCCSCCO	3%[11.4 µM]
CCOC(=O)C1CCCN(C(=O)CN2C(=O)c3ccccc3C2=O)C1 (centres undefined)	2%
O=C(Nc1sccc1C(=O)NCc1ccco1)c1cccnc1	-6%
CCOC(=O)N1CCC(NC(=O)c2cccn3c(=O)c4cc(Br)ccc4nc23)CC1	6%
O=C1OC(N2CCN(Cc3ccccc3)CC2)c2ccccc21 (centres undefined)	6%
CC(C)CCn1c(N2CCOCC2)nc2c1c(=O)n(CC(N)=O)c(=O)n2C	3%
O=C1c2ccccc2-c2c1nc1c([n+]2[O-])CCCC1	7%
O=C(NCc1ccccc1)c1cc(-c2cccc(O)c2)on1	-6%
O=C(NCC1COc2ccccc2O1)C1C2C=CC3(CN(Cc4ccccc4Cl)C(=O)C13)O2 (centres undefined)	-1%
NC1=N[C@H](c2ccc(Cl)cc2)N(c2ccc(S(N)(=O)=O)cc2)C(N)=N1	8%[11.4 µM]
CC(=O)N(C)c1ccc(NC(=O)c2ccco2)cc1	6%
CS(=O)(=O)NCCC1=CCCCC1	-2%
CCOc1ccccc1OCCCC(=O)NC1=NCCS1	3%
Oc1ccc2[nH]ccc2c1	-16%
CCOC(=O)CCn1nc(-c2ccc(Cl)cc2)cc1N	-3%
CCCCc1nnc(NC(=O)C=C(C)C)s1	-5%
Cc1ccc2cc3cc(C(=O)N4CCN(C(=O)c5ccco5)CC4)sc3nc2c1	32µM*
CC(=O)Nc1ccc(N2CCN(Cc3ccccc3F)CC2)cc1	6%
O=C(c1cccc(F)c1)N1CCC2(CCCN(Cc3ccncc3)C2)CC1	4%
O=C(O)[C@@H]1[C@@H]2C[C@@H]3[C@@H](OC(=O)[C@@H]31)[C@H]2Br	-2%[11.4 µM]
CN1CCCC[C@@H]1CCN1CCCCC1	2%[11.4 µM]
O=C(c1ccc(Cn2c(=O)[nH]c3ccccc3c2=O)cc1)N1CCN(c2ccc(Cl)cc2)CC1	?
CC(=O)Nc1ccc(OC(=O)c2cccnc2)cc1	-2%
CC(C)=CC1C(CO)C1(C)C (centres undefined)	0%
More records follow:
SMILES	HSD17B inhib
Cc1cccc(C(=O)NC2CC(C)(C)NC(C)(C)C2)c1	3%
O=C(Cn1ncc2ccccc21)N1CCc2ccccc21	-21%
CN(C)c1ncnc2ccc(-c3ccc4c(c3)OCO4)cc12	?
CC(=O)N1CCN(c2ccc(NC(=O)c3ccc4c(c3)OCO4)cc2)CC1	7%
CCOC(=O)C1=C(C)N(C)C(=O)NC1c1cc2c(cc1Br)OCO2 (centres undefined)	-4%
COc1ccc(-c2nnc(SCC(=O)Nc3ccccc3OC)o2)cc1	2%
CC(C)CNC(=O)C1CCN(c2ccc(S(=O)(=O)N3CCOCC3)cc2)CC1	6%
O=c1cnc2cnc(Nc3ccccc3)nc2n1C[C@H]1CCCO1	2%
Nc1cc(S(=O)(=O)O)ccc1O	-4%
CCOC(=O)c1ccc(NC(=O)c2cc3ccccc3o2)cc1	-6%
COc1ccc(-c2noc(C3CCCN(S(=O)(=O)c4cccc(Cl)c4C)C3)n2)cc1OC (centres undefined)	2%
CCOc1cc(C)nc(Oc2ccc(=O)[nH]n2)n1	-5%

Brought forward from above: five compounds, then new ones.
SMILES	HSD17B inhib
O=c1cnc2cnc(Nc3ccccc3)nc2n1C[C@H]1CCCO1	2%
Nc1cc(S(=O)(=O)O)ccc1O	-4%
CCOC(=O)c1ccc(NC(=O)c2cc3ccccc3o2)cc1	-6%
COc1ccc(-c2noc(C3CCCN(S(=O)(=O)c4cccc(Cl)c4C)C3)n2)cc1OC (centres undefined)	2%
CCOc1cc(C)nc(Oc2ccc(=O)[nH]n2)n1	-5%
O=C(c1ccc2c(c1)OCCO2)N(c1ccccn1)C1CCCCC1	4%
CCOC(=O)C1=C(C)N(C2CCCCC2)C(=O)C1	14%
O=C(Nc1ccc(-c2nc3ccccc3o2)cc1)c1ccc2c(c1)OCO2	?
O=CN1CC(=O)N(c2ccccc2)c2c([nH]c3ccccc23)C1	1%
COc1ccc(-c2nc3ccccc3s2)cc1O	?
C[C@H](NC[C@H](O)CP(=O)(O)CC1CCCCC1)c1ccc(Cl)c(Cl)c1	-23%
CCOc1ccc(-c2noc(CCC(=O)NC)n2)cc1OCC	2%
Cc1cc(C)nc(SCc2nnc(SCc3ccccc3Cl)o2)n1	5%
CCCCOP(=O)(c1ccc(N(C)C)cc1)C(O)c1ccccc1F (centres undefined)	-6%
O=C(CSc1nc2ccccc2[nH]1)Nc1cc(C(F)(F)F)ccc1N1CCOCC1	-17%
CNC(=O)CN(C1CCCCC1)S(=O)(=O)c1ccc(F)cc1	0%
O=C(NCCC1=CCCCC1)C1CCN(S(=O)(=O)c2cccc3nsnc23)CC1	-8%

Reformatted as a markdown table: entries from further up
| Molecule | HSD17B inhib |
| --- | --- |
| CCOc1ccc(-c2noc(CCC(=O)NC)n2)cc1OCC | 2% |
| Cc1cc(C)nc(SCc2nnc(SCc3ccccc3Cl)o2)n1 | 5% |
| CCCCOP(=O)(c1ccc(N(C)C)cc1)C(O)c1ccccc1F (centres undefined) | -6% |
| O=C(CSc1nc2ccccc2[nH]1)Nc1cc(C(F)(F)F)ccc1N1CCOCC1 | -17% |

(listing goes on)
SMILES	HSD17B inhib
O=C(c1cc2n(n1)C(C(F)(F)F)CC(c1ccc(Cl)cc1)N2)N1CCCC1 (centres undefined)	2%
COc1ccc2c(c1)-c1nc(NC(=O)c3cccs3)sc1CC2	-25%
Cc1ccc2c(c1)N(CC(=O)Nc1ccc3c(c1)OCCO3)C(=O)CO2	1%
COc1ccc(C(CNC(=O)CN2C(=O)NC3(CC(C)CC(C)(C)C3)C2=O)N2CCOCC2)cc1 (centres undefined)	4%
O=C(CSC1=NCCS1)NCc1ccco1	-25%
Cc1ccc2c(c1)c(C)c(C)n2CC(O)Cn1nnc2ccccc21 (centres undefined)	?
O=C(Nc1ccccc1NC(=O)c1c(F)c(F)c(F)c(F)c1F)c1c(F)c(F)c(F)c(F)c1F	-3%
CCOC(=O)C1C(=O)CC(C)(O)C(C(=O)OCC)C1c1ccc(OCC)cc1 (centres undefined)	-2%
NC(=O)Cn1nnc(-c2ccc(C(F)(F)F)cc2)n1	5%
Cc1ccc(-c2cc(C(F)F)nc(NCC3CCCO3)n2)cc1 (centres undefined)	?
CCN1CCN(S(=O)(=O)c2ccc(Br)s2)CC1	5%
Nc1ncnc2nc(-c3ccc(N4CCOCC4)nc3)cc(-c3cccc(Br)c3)c12	?
Cc1cc2nc(SCC(=O)Nc3nonc3C)c3c(c2cc1C)CCCC3	-2%
CCOC(=O)/C(C#N)=C(/C)c1ccc(OC)cc1	-1%
Cc1noc(C)c1S(=O)(=O)NC1CCCc2ccccc21 (centres undefined)	4%
COc1ccc(NC(=O)CN2CCN(CC(=O)Nc3ccccc3Cl)CC2)cc1Cl	0%
c1ccc(-c2cnc(CSc3ncnc4sccc34)o2)cc1	32µM*
CSc1ccccc1N=Cc1nc(-c2ccccc2)oc1O	6%
Cc1cc(S(=O)(=O)NCC(C)C)ccc1OCC(=O)NCc1ccccn1	5%
CCN1C(=O)/C(=C2/C=CC=CN2C)SC1=S	-10%
CCOCCCNC(=O)C1CCN(S(=O)(=O)N2CC(C)CC(C)C2)CC1 (centres undefined)	7%
O=C(CSc1n[nH]c(-c2cccs2)n1)N1CCN(S(=O)(=O)c2ccccc2)CC1	-11%
CC1(C)CC(C(=O)Nc2nccs2)CCO1 (centres undefined)	13%
COc1cccc(Nc2ncc3ncc(=O)n(CCC#N)c3n2)c1	0%

Of the compounds above, these have a cyano group.
SMILES	HSD17B inhib
C/C(=C(\C#N)C(=O)NCCN1CCOCC1)N(C)C	-9%
CCOC(=O)/C(C#N)=C(/C)c1ccc(OC)cc1	-1%
COc1cccc(Nc2ncc3ncc(=O)n(CCC#N)c3n2)c1	0%

(next part)
SMILES	HSD17B inhib
Oc1ccc(COCc2ccccc2)c2cccnc12	-11%
O=C(COc1cc(Cl)c(Cl)cc1Cl)NCCN1CCOCC1	6%
c1csc(CNc2cc(-c3ccoc3)ncn2)c1	-8%
CCOC(=O)C1CCCCN1Cc1ccccc1C(F)(F)F (centres undefined)	2%
NC(=O)c1ccccc1[N+](=O)[O-]	1%
COC(=O)c1[nH]c(=O)c2ccccc2c1OCc1ccccc1	36%[activator]
O=C(NCC1CC1)[C@H]1C[C@@H]1[C@H](NP(=O)(c1ccccc1)c1ccccc1)c1ccccc1	2%
COc1ccc(CCNC(=O)c2c[nH]c3ccccc3c2=O)cc1OC	7%
CC(C)C(NS(=O)(=O)c1ccc2c(c1)oc(=O)n2C)C(=O)N1CCN(c2ccccc2F)CC1 (centres undefined)	2%
Cc1ccc(-c2nc(-c3ccccn3)no2)cc1	-2%
CCOC(=O)N1CCC(NC(=O)C2CCN(S(=O)(=O)N3CCC(C)CC3)CC2)CC1	-1%
O=C(Cn1nnc2ccccc21)NC1CCCCC1	0%
COC(=O)c1c(NC(=O)CN2CCN(C(=O)c3ccco3)CC2)c2c(C)cccc2n1C	3%
COC(=O)[C@@H](NC(=O)NC1CCCc2ccccc21)C(C)C (some centres undefined)	7%
COC(=O)c1nnc(-c2ccccc2)c(-c2ccccc2)n1	5%
O=C1CC(c2ccccc2O)Oc2ccc(O)cc21 (centres undefined)	-1%
CC(C)CCNC(=O)CN(CCCN1CCOCC1)C(=O)Cn1nnc(-c2ccc(F)cc2)n1	10%
O=C(Nc1cccnc1)c1cnn2cccnc12	0%
CCCn1c(-c2ccc(F)cc2)nc2c(NC(C)CN(C)C)nc(C)nc21 (centres undefined)	32µM*
CC(CCc1ccco1)NC(=O)Cn1ncc2c(=O)oc3ccccc3c21 (centres undefined)	0%
CC(C)=C1C2CC2C2C(C(=O)O)C12 (centres undefined)	10%
CCCN1C(=O)c2cc(C(=O)NCc3cccs3)ccc2C1O (centres undefined)	1%
N#CCCN(CCC#N)C(=O)c1ccc(Cl)cc1	5%
COc1cc(NC(=O)CSCc2cnn(-c3ccccc3)c2-n2cccc2)cc(OC)c1	-17%
Cc1ccc(S(=O)(=O)N2CCC(C(=O)NCCN3CCCCCC3)CC2)cc1	5%

High-throughput results: PubChem BioAssay, National Center for Advancing Translational Sciences (NCATS)

The list is partial; count on the stated rates, not on these rows.
